Ecoli rRNA inh: inhibits bacterial ribosomal RNA function over humanized ribosomes; E. coli WT GFP vs humanized-ribosome RFP mutants, fluorescence, 24 h; stronger effect = lower value; DMSO median 0, no signal -100; GFP signal change (wild-type ribosome), % (test concentration not listed); hit rate 1.6% among 350,000;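 active means significant combined selectivity score with lowered wild-type GFP, culture density cut under 30%, mutant RFP and density less affected; inactive means any of these conditions unmet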; further: one replicate is shown; some compounds called inactive have numbers as strong as hits
AF4-AF9 inh: MLL-AF4/AF9 protein interaction inhibition | P42568 | AlphaScreen, biotin-AF4 peptide binding to FLAG-AF9 | inhibition, % at 10 µM | hit rate 0.47% among 350,000;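 active means every replicate reaching a set inhibition limit, whatever the replicate mean, cut at about 25% in these data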;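 further: 0% = plate neutral control median and 100% = total signal loss; the record names both 10 and 1 µM as test concentration; the first replicate is given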
Target sequence (P42568 whole entry, looked up): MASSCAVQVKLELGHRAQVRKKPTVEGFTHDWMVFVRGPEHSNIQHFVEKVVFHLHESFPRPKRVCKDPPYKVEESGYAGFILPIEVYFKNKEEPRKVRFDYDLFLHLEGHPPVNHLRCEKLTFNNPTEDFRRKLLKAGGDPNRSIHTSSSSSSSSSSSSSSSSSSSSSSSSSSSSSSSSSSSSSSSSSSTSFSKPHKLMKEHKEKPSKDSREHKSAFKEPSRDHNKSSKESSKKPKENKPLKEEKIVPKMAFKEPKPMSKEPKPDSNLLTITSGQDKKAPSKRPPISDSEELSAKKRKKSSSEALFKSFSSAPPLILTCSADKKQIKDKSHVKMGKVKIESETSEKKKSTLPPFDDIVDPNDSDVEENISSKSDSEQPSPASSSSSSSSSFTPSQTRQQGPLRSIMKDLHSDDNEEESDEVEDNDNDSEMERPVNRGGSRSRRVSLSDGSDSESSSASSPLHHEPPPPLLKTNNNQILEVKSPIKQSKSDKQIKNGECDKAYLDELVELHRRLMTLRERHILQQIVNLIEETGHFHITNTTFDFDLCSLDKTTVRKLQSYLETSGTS
Ecoli rRNA inh OD600: second read-out of Ecoli rRNA inh, no call of its own (marks repeat the call); OD600 change, %; measured here: OD600 growth;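 optical density of the mix in the first replicate; 0 = DMSO median and -100 = no signal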
Ecoli rRNA inh RFP: second read-out of Ecoli rRNA inh, no call of its own (marks repeat the call); RFP signal change, %; measured here: RFP humanized mutant strains;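 first replicate; 0 = DMSO median and -100 = no signal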
Active calls of the source: *; & = joins results of further samples.

SMILES	Ecoli rRNA inh	Ecoli rRNA inh OD600	Ecoli rRNA inh RFP	AF4-AF9 inh
O=S(=O)(c1ccccc1)N1C[C@@H]2N[C@H](C1)C2c1ccc(-c2ccc(F)cc2)cc1 (some centres undefined)	-1&-61	-4&-76	1.0&-20	-5.8&4.2
CN(C)CCCNC(=O)C[C@H]1CC[C@@H]2[C@H](COC[C@H](O)CN2CC2CCCCC2)O1	4	14	0.5	-13
CN(C)C(=O)C[C@H]1CC[C@H]2[C@H](COc3ccc(NC(=O)C4CCCC4)cc3C(=O)N2C)O1	0	0	-1.4	-2.7
CC(C)CC#Cc1ccc([C@H]2[C@H](CO)N3C(=O)CN(C(=O)Nc4ccc(F)cc4)C[C@@H]23)cc1	-17	-44	29	3.1
CC(C)CC#Cc1ccc2c(c1)O[C@H](CN(C)Cc1ccc3c(c1)OCO3)[C@@H](C)CN([C@@H](C)CO)S2(=O)=O	0	9	0.9	1.0
CN1C[C@H]2[C@@H](c3ccccc31)[C@@H](CO)N2C(=O)Nc1ccc(F)cc1	-2	4	0.7	-0.1
C/C=C/c1ccc([C@H]2[C@@H](CO)N3C(=O)CN(Cc4ccc(C)cc4)C[C@H]23)cc1	2	3	0.9	6.8
COc1ccc(C(=O)CSc2nc(=O)n(Cc3cccnc3)c3c2CCC3)cc1	5	1	1.2	0.2
Cc1ccc(S(=O)(=O)N(C)C[C@@H]2OCCCC[C@H](C)Oc3ccc(NC(=O)CCC(F)(F)F)cc3C(=O)N([C@H](C)CO)C[C@H]2C)cc1	-2	-2	0.6	-0.6
Cc1ccc(S(=O)(=O)Nc2ccc3c(c2)C(=O)N([C@H](C)CO)C[C@@H](C)[C@@H](CN(C)C(=O)c2ccccc2)OCCCC[C@H](C)O3)cc1	-4	-7	1.1	0.9
O=C1CN(S(=O)(=O)Cc2ccccc2)C[C@H]2[C@@H](c3ccc(C#Cc4cccc(F)c4)cc3)[C@@H](CO)N12	2	13	-4.2	-3.9
COc1ccccc1C#Cc1ccc([C@@H]2[C@@H](CO)N(C(=O)C3CCCC3)[C@H]2C#N)cc1	1	-19	24	-0.2
C[C@@H]1CN([C@H](C)CO)C(=O)c2cccc(N(C)C)c2O[C@@H]1CN(C)Cc1ccc(C(=O)O)cc1	2	2	-2.5	-3.3
C[C@@H]1CN([C@@H](C)CO)C(=O)c2cc(NS(=O)(=O)c3ccc(F)cc3)ccc2O[C@@H](C)CCCCO[C@@H]1CN(C)C(=O)Nc1cccc2ccccc12	-1	-4	-0.9	-0.9
CCC(=O)N1CC(=O)N2[C@H](CO)[C@H](c3ccc(C#CC4CCCC4)cc3)[C@@H]2C1	0	8	-4.1	-4.6
CCCNC(=O)C[C@@H]1C[C@H]2c3cc(NC(=O)C4CCC4)ccc3O[C@H]2[C@H](CO)O1	0	7	-0.6	-3.2
CC(=O)N1CC(=O)N2[C@H](C1)[C@H](c1ccc(-c3ccncc3)cc1)[C@@H]2CO	1	-2	0.0	-4.1
CCC(=O)Nc1ccc2c(c1)OC[C@@H](C)N(C(=O)c1cnccn1)C[C@H](C)[C@@H](OC)CN(C)C2=O	1	-2	0.5	1.3
O=C(c1ccncc1)N1CC(=O)N2[C@H](CO)[C@H](c3ccc(-c4ccccc4)cc3)[C@@H]2C1	4	1	-1.2	-0.5
CN(C)CC(=O)N1[C@H](CO)[C@H](c2ccccc2)C12CN(C(=O)c1cccc(F)c1)C2	4	-2	-1.3	-2.9
C[C@@H]1CN([C@@H](C)CO)C(=O)c2cc(NS(=O)(=O)c3ccc(F)cc3)ccc2O[C@@H](C)CCCCO[C@H]1CN(C)Cc1ccccc1	-2	-4	0.0	1.3
CC(=O)N1[C@@H](CO)[C@H](c2ccccc2)C12CN(C(=O)c1ccccc1)C2	3	2	-1.8	-2.6
CCC(=O)NC[C@H]1[C@@H](c2ccc(C3=CCCCC3)cc2)[C@@H](CO)N1C(=O)C1CC1	-1	2	2.4	-1.0
CO[C@@H]1CN(C)C(=O)c2cc(NS(C)(=O)=O)ccc2OC[C@@H](C)N(CC2CCOCC2)C[C@@H]1C	-6	-7	-3.7	-0.7
N#Cc1ccc(-c2ccc([C@@H]3[C@H](CO)N4C(=O)CN(C(=O)Cc5ccccc5)C[C@@H]34)cc2)cc1	-4	-7	2.0	0.2

Quoted at random: 4 entries already listed
SMILES	Ecoli rRNA inh	Ecoli rRNA inh OD600	Ecoli rRNA inh RFP	AF4-AF9 inh
CN(C)CC(=O)N1[C@H](CO)[C@H](c2ccccc2)C12CN(C(=O)c1cccc(F)c1)C2	4	-2	-1.3	-2.9
CC(=O)N1CC(=O)N2[C@H](C1)[C@H](c1ccc(-c3ccncc3)cc1)[C@@H]2CO	1	-2	0.0	-4.1
C/C=C/c1ccc([C@H]2[C@@H](CO)N3C(=O)CN(Cc4ccc(C)cc4)C[C@H]23)cc1	2	3	0.9	6.8
C[C@@H]1CN([C@@H](C)CO)C(=O)c2cc(NS(=O)(=O)c3ccc(F)cc3)ccc2O[C@@H](C)CCCCO[C@@H]1CN(C)C(=O)Nc1cccc2ccccc12	-1	-4	-0.9	-0.9

Back to the main list with the three entries that preceded the break.
SMILES	Ecoli rRNA inh	Ecoli rRNA inh OD600	Ecoli rRNA inh RFP	AF4-AF9 inh
CCC(=O)NC[C@H]1[C@@H](c2ccc(C3=CCCCC3)cc2)[C@@H](CO)N1C(=O)C1CC1	-1	2	2.4	-1.0
CO[C@@H]1CN(C)C(=O)c2cc(NS(C)(=O)=O)ccc2OC[C@@H](C)N(CC2CCOCC2)C[C@@H]1C	-6	-7	-3.7	-0.7
N#Cc1ccc(-c2ccc([C@@H]3[C@H](CO)N4C(=O)CN(C(=O)Cc5ccccc5)C[C@@H]34)cc2)cc1	-4	-7	2.0	0.2
COCC(=O)N1C[C@@H](C)[C@@H](OC)CN(C)C(=O)c2ccc(NC(=O)Nc3ccccc3)cc2OC[C@H]1C	-1	-8	4.6	3.6
Cc1noc(C)c1NC(=O)Nc1ccc2c(c1)C(=O)N([C@H](C)CO)C[C@@H](C)[C@H](CN(C)Cc1ccccc1)OCCCC[C@H](C)O2	2	4	-1.1	0.2
CC=Cc1ccc2n(c1=O)C[C@H]1[C@H](CO)[C@@H](C(=O)NC3CCCC3)N(C(=O)C3CCC3)[C@@H]21 (mixture of isomers)	7	15	-1.2	-1.4
Cc1cccc(S(=O)(=O)N2C[C@@H]3N[C@H](C2)C3c2ccc(-c3ccncc3)cc2)c1 (some centres undefined)	1&1	-9&-4	0.6&0.2	-4.5&-3.7
O=C(C[C@@H]1C[C@H]2c3cc(NC(=O)c4cccnc4)ccc3O[C@H]2[C@@H](CO)O1)NC1CCCC1	0	12	-2.7	-1.2
C/C=C/c1ccc([C@H]2[C@@H](CO)N(C(=O)C3CCC3)[C@H]2CNC(=O)CN(C)C)cc1	1	8	-3.1	2.0
COc1cccc(C#Cc2ccc3c(c2)[C@H]2[C@H](CCN2S(=O)(=O)c2cccc(OC)c2)[C@@H](CO)N3)c1	-1	5	1.2	1.2
O=C(C1CCC1)N1CC2(C1)[C@H](c1ccccc1)[C@H](CO)N2CC1CCCC1	-7	-13	1.9	-1.0
CC=Cc1ccc2n(c1=O)C[C@H]1[C@H](CO)[C@@H](C(=O)N(C)C)N(C(=O)CC)[C@@H]21 (mixture of isomers)	0	5	-0.5	-2.4
C[C@@H]1CCCCO[C@H](CN(C)Cc2ccc(C(F)(F)F)cc2)[C@H](C)CN([C@H](C)CO)C(=O)c2cc(NS(=O)(=O)c3ccccc3)ccc2O1	-2	-4	11	9.2
CN(C)c1ccc2c(c1)[C@H]1C[C@H](CC(=O)N3CCCCC3)O[C@@H](CO)[C@H]1O2	4	10	2.7	-2.0
CN(C)CC#Cc1ccc([C@@H]2[C@@H](CO)N3C(=O)CN(C(=O)c4ccccc4)C[C@@H]23)cc1	1	3	-3.0	2.3
CCCCN(C(=O)COC(=O)C1(c2ccccc2)CC1)c1c(N)n(CCC)c(=O)[nH]c1=O	6	9	1.4	-72
COCC#Cc1ccc([C@H]2[C@H](CO)N3C(=O)CN(C(=O)C4CC4)C[C@@H]23)cc1	0	3	-1.4	-9.5
Cc1cccc(-c2ccc([C@H]3[C@@H](CO)N4C(=O)CN(C(=O)NC5CCCCC5)C[C@@H]34)cc2)c1	-18	-51	30	3.2
N#Cc1cccc(-c2ccc(C3[C@@H]4CN(C(=O)C5CCCC5)C[C@H]3N4)cc2)c1 (some centres undefined)	1&1	19&9	8.9&0.2	10&-1.7
C[C@H]1CN([C@@H](C)CO)C(=O)Cc2cc(NS(C)(=O)=O)ccc2O[C@H]1CN(C)Cc1ccc(C(F)(F)F)cc1	-1	-7	4.6	-2.4
COc1ccc2c3c(n(C)c2c1)[C@H](CO)N(C)CC31CCN(S(=O)(=O)c2cccc(F)c2)CC1	-9	-17	0.9	17
CC=Cc1ccc2n(c1=O)C[C@H]1[C@H](CO)[C@@H](C(=O)NCC3CC3)N(CCC)[C@@H]21 (mixture of isomers)	0	-6	3.8	-4.6
COc1ccc(C#Cc2ccc([C@H]3[C@H]4CN(C(=O)Nc5ccccc5F)CC(=O)N4[C@H]3CO)cc2)cc1	-2	-4	-0.1	-3.6
O=C(Cc1ccccc1)N1CC(=O)N2[C@H](CO)[C@@H](c3ccc(-c4ccccc4)cc3)[C@@H]2C1	-54	-71	-11	-1.0
C/C=C/c1ccc([C@@H]2[C@@H](CO)N3C(=O)CN(C(=O)Cc4cccnc4)C[C@@H]23)cc1	6	14	2.3	-0.3
Cc1noc(C)c1NC(=O)N(C)C[C@@H]1OCCCC[C@H](C)Oc2ccc(NS(=O)(=O)c3ccccc3)cc2C(=O)N([C@@H](C)CO)C[C@@H]1C	-1	5	-1.1	-5.3
CC(=O)N1CCCCN2[C@H](CO)[C@@H](c3ccc(-c4ccc(F)cc4)cc3)[C@@H]2C1	-4	5	0.7	1.5
O=C(C[C@H]1C=C[C@H](NC(=O)C2CCOCC2)[C@H](CO)O1)Nc1ccccc1	2	-2	-0.1	0.3
Further entries.
SMILES	Ecoli rRNA inh	Ecoli rRNA inh OD600	Ecoli rRNA inh RFP	AF4-AF9 inh
CCCN(C)C[C@H]1OCCCC[C@@H](C)Oc2ccc(NC(=O)CCC(F)(F)F)cc2C(=O)N([C@@H](C)CO)C[C@H]1C	2	1	-2.5	-3.3
Cc1ccc(S(=O)(=O)N(C)C[C@H]2OCCCC[C@@H](C)Oc3ccc(NC(=O)NC(C)C)cc3C(=O)N([C@H](C)CO)C[C@H]2C)cc1	-5	-3	2.7	3.3
O=C(CC1CC1)N1CC(=O)N2[C@H](C1)[C@@H](c1ccc(-c3ccccc3)cc1)[C@@H]2CO	2	-3	12	-9.3
O=C(O)[C@@H]1[C@@H](CO)[C@@H]2Cn3c(ccc(/C=C/c4ccccc4)c3=O)[C@@H]2N1C(=O)C1CCCC1	0	2	-1.4	-12
O=C(C1CC1)N1CC(=O)N2[C@H](CO)[C@@H](c3ccc(C#CCc4ccccc4)cc3)[C@@H]2C1	-4	-2	5.4	-0.6
CCCC#Cc1ccc([C@H]2[C@@H](CO)N3C(=O)CN(S(=O)(=O)Cc4ccccc4)C[C@H]23)cc1	1	-38	18	3.2
CC(=O)N1[C@@H]2Cn3c(ccc(C4=CCCC4)c3=O)[C@H]1[C@@H](C(=O)NC1CCC1)[C@@H]2CO	1	2	-6.0	-1.3
CO[C@@H]1CN(C)C(=O)c2cc(NC(=O)C3CC3)ccc2OC[C@@H](C)N(C(=O)Cc2ccccn2)C[C@H]1C	3	4	3.8	-0.1
O=C(C1CCOCC1)N1CC(=O)N2[C@H](CO)[C@H](c3ccc(C#CC4CC4)cc3)[C@@H]2C1	3	10	-4.5	0.6
Cc1ccc(S(=O)(=O)N(C)C[C@H]2OCCCC[C@H](C)Oc3ccc(NC(=O)Cc4ccccc4)cc3C(=O)N([C@@H](C)CO)C[C@H]2C)cc1	1	-5	-4.8	-2.7
C[C@@H]1CCCCO[C@@H](CN(C)C(=O)Nc2ccccc2)[C@H](C)CN([C@@H](C)CO)C(=O)c2cc(NC(=O)Nc3cccc4ccccc34)ccc2O1	1	1	0.9	-1.7
C[C@@H]1CCCCO[C@H](CN(C)C(=O)Nc2ccccc2)[C@@H](C)CN([C@H](C)CO)C(=O)c2cc(NC(=O)Nc3cccc4ccccc34)ccc2O1	1	3	1.1	-5.9
CCCN1C[C@H](C)[C@@H](OC)CN(C)C(=O)c2ccc(NC(=O)c3cnccn3)cc2OC[C@@H]1C	2	3	-0.3	-0.7
O=C(c1cnccn1)N1CC(=O)N2[C@H](C1)[C@@H](c1ccc(C#CCC3CCCC3)cc1)[C@@H]2CO	-61	-76	-15	9.7
COC(=O)[C@H]1[C@H](CO)[C@H]2Cn3c(ccc(-c4ccncc4)c3=O)[C@H]2N1CC1CCCC1	-2	-3	2.2	-3.1
O=C(NC1CCCC1)N1CC(=O)N2[C@H](C1)[C@@H](c1ccc(-c3ccc(F)cc3)cc1)[C@@H]2CO	-18	-69	11	1.5
O=C(Cc1ccncc1)N1CC(=O)N2[C@@H](CO)[C@H](c3ccc(Br)cc3)[C@@H]2C1	3	10	2.1	-0.1
Cc1cccc(-c2ccc([C@H]3[C@H](CO)N4C(=O)CN(C(=O)CN5CCOCC5)C[C@@H]34)cc2)c1	4	10	4.8	-2.4
Cc1ccc(S(=O)(=O)N(C)C[C@@H]2OCCCC[C@@H](C)Oc3ccc(NC(=O)NC(C)C)cc3C(=O)N([C@@H](C)CO)C[C@H]2C)cc1	-5	-10	-0.4	-0.6
C[C@@H]1CN([C@H](C)CO)C(=O)Cc2cc(NS(=O)(=O)c3cccs3)ccc2O[C@@H]1CN(C)Cc1ccccc1	-1	-4	0.6	-0.5

An excerpt; rates above refer to the full screens.
